# Compound activity deposited in PubChem by ICCB-Longwood Screening Facility, Harvard Medical School.
# GIV Gai3 FP – inhibitors of GIV peptide binding to Galpha-i3, primary screen, biochemical, fluorescence polarization, FITC-GIV GBA peptide, rat Galphai3; Guanine nucleotide-binding protein G(i) subunit alpha-3 (Rattus norvegicus), P08753; 90 min; hits give low values; scaled: aluminum fluoride 0%, vehicle 100%; percent of control (FP), % (test concentration not listed); 210,000 compounds, 0.42% hits; AID 1224905, 2016;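 active means replicate mean at 85% of control or lower, very high polarization wells dropped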;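 further: wells of about 15 µL received 100 nL stock; the first replicate is given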
# Target sequence (P08753 whole entry, looked up): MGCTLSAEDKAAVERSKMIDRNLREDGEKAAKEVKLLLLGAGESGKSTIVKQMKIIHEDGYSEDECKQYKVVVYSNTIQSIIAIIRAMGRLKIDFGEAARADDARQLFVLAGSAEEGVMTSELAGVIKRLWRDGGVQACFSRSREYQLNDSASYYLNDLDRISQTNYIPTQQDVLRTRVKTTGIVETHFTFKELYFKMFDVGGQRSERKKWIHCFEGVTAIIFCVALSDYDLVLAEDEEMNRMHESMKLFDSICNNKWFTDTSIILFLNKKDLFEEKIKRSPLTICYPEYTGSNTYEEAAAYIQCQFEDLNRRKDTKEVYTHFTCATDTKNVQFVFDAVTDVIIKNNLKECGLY
# * marks the source's active call; other numbers are inactive results. These rows are one share of the data (hit frequency here may not be typical).
GIV Gai3 FP | molecule
109 | CCOC(=O)C1=NN(c2cccc(Cl)c2)C2(S1)c1ccccc1C(c1cc(C)ccc1C)=NN2c1ccccc1 (configuration not stated)
110 | NC(=O)C1(N2CCCCC2)CCN(c2ncnc3scc(-c4ccccc4)c23)CC1
117 | CCc1ccc(S(=O)(=O)N(C(=O)c2ccccc2)c2ccc3oc(C)c(C(C)=O)c3c2)cc1
100 | Cc1nc2n(c(=O)c1C)CCN2CC(=O)NCc1ccco1
96 | COc1ccc(NC(=O)C2CCN(c3cc(=O)n(C)c(=O)n3C)CC2)cc1Cl
106 | COc1ccc(NC(=O)CSc2nc(N)c(C#N)c(-c3ccc(F)cc3)c2C#N)cc1
99 | CCC(C)NC(=O)N1CCCC1c1cc(C)no1 (configuration not stated)
105 | COc1ccc(C2=NN3C(C2)c2cc(OC)ccc2OC3c2ccc(SC)cc2)cc1 (configuration not stated)
113 | CCOc1ccc(C2C(C#N)=C(N)N(c3ccc([N+](=O)[O-])cc3)C3=C2C(=O)CC(C)(C)C3)cc1 (configuration not stated)
103 | CC(C)N1C(=O)c2ccccc2Sc2cc(-c3noc(C4CC4)n3)ccc21

# (more compounds)
GIV Gai3 FP | molecule
101 | O=C(Cn1cnc2ccccc2c1=O)NCC(=O)Nc1cnc2ccccc2c1
103 | Cc1ccc(C)c(N2CCN(S(=O)(=O)c3cc(-c4nnc(C5CC5)o4)co3)CC2)c1
109 | O=C(NCCCN1CCOCC1)c1nn2c(C(F)(F)F)cc(-c3cccs3)nc2c1Cl
111 | Cc1c(Cl)cccc1NC(=O)CCc1nc(CSc2nc3ccccc3s2)no1
103 | CN(C)CCNC(=O)c1ccc(-c2nc(CCN(C)C(=O)Nc3ccccc3)no2)cc1
101 | O=C(CCn1c(N2CCCCC2)nc2ccsc2c1=O)NC1CCCC1
103 | Cc1ccc(-c2nc(Cn3nnc(-c4nc(-c5ccc(OC(C)C)cc5)no4)c3C)c(C)o2)cc1
115 | Cc1cccc(-c2ccc(C(=O)NC3CCCc4ccccc43)cn2)c1 (configuration not stated)
112 | CCOC(=O)C1CCCN(C(=O)c2ccc(Cn3c(=S)[nH]c4ccc(Br)cc4c3=O)cc2)C1 (configuration not stated)
106 | CC(C)c1cc(C2CCCN2Cc2cc(F)ccc2F)on1 (configuration not stated)

# More compounds.
GIV Gai3 FP | molecule
113 | COc1ccccc1NC(=O)C1C(=O)NC2(C)CC1c1ccccc1O2 (configuration not stated)
107 | COC(=O)C1=C(C(=O)OC)SC(=C2C(=S)C(C)(C)N(C(=O)c3ccc(Br)cc3)c3cc(OC)ccc32)S1
103 | N#CC1=CN(c2ccc(C#N)cc2)c2ccc(F)cc2S1(=O)=O
107 | COc1cccc(C2C3=C(CC(C)(C)CC3=O)Nc3ccc4ccccc4c32)c1OC (configuration not stated)
102 | O=C(CC1CCN(C(=O)c2cn(-c3ccccc3)nc2-c2ccccc2)CC1)Nc1ccc(F)cc1
109 | O=[N+]([O-])c1ccc(-c2nc(NCCCN3CCOCC3)c3ccccc3n2)cc1
111 | Cc1cc2c(cc1C)N(C(=O)c1cccc([N+](=O)[O-])c1)C(C)(C)c1ssc(=S)c1-2
98 | CCCCn1c(=O)[nH]c2c(C(=O)N3CCC4(CC3)OCCO4)snc2c1=O
105 | Cc1nc(-c2nnn(-c3ccccc3)c2C)sc1C(=O)NCc1ccccc1
123 | CC1(C)SC(=S)N(CCN2CCOCC2)C1N(O)C(=O)Nc1cccc2ccccc12 (configuration not stated)

# Going on with the list.
GIV Gai3 FP | molecule
97 | Cc1ccc(NC(=O)Cn2c(=O)c(CCC(=O)NC3CCCC3)nc3ccccc32)cc1C
110 | CCc1ccccc1NC(=O)c1cc(S(=O)(=O)NCCc2ccccc2)ccc1F
102 | Cn1nnc2cc(-c3noc(CNC(=O)Cc4ccccc4)n3)ccc21
100 | COC(=O)c1c[nH]n2c(=O)cc(CSc3nnc4c5ccccc5nc(-c5ccccc5)n34)nc12
104 | COc1cc(NS(=O)(=O)c2c(C)sc(C)c2-c2cc(C(F)(F)F)on2)cc(OC)c1
107 | CCN(CC)c1ccc(N2C(=O)/C(=C/c3ccc([N+](=O)[O-])cc3)C=C2c2ccccc2)cc1
111 | O=C1/C(=C/c2ccc(Cl)cc2)C=C(c2ccccc2)N1c1ccc(I)cc1
105 | Cc1ccc2nsnc2c1S(=O)(=O)N1CCc2ccccc2C1CN1C(=O)c2ccccc2C1=O (configuration not stated)
111 | CCOc1ccccc1-n1c(=S)sc2c(=O)n(-c3ccccc3C)c(=S)[nH]c21
105 | Cc1sc(C)c(S(=O)(=O)N2CCCCCC2)c1-c1cc(C(F)(F)F)on1

# Following part:
GIV Gai3 FP | molecule
124 | Cc1cc(Cl)ccc1NC(=O)/C(=C/c1ccc2c(c1)OCO2)NC(=O)c1ccccc1Br
105 | Cc1cc2c(cc1S(=O)(=O)NC(C)(C)C)OCC(=O)N2Cc1noc(C2CC2)n1
102 | O=C(c1ccc(-n2nc(N3CCCC3)ccc2=O)cc1)N1CCc2ccccc2C1
107 | Cc1ccc(-c2nc(CN3CCCC(C(=O)Nc4c(C)cc(C)cc4C)C3)no2)cc1 (configuration not stated)
110 | CC1CCCN(C(=O)C2CCN(c3ncnc4c3oc3ccccc34)CC2)C1 (configuration not stated)
105 | CC(C)NC(=O)c1ccc2c(c1)CCN2C(=O)C1CCC1
109 | CC1(C)c2ccccc2N(c2ccccc2)C12C=Cc1cc([N+](=O)[O-])cc(CO)c1O2 (configuration not stated)
112 | CCOC(=O)c1ccc(NC(=O)CN(c2ccc(Cl)cc2)S(=O)(=O)c2ccc(OC)cc2)cc1
112 | COc1ccc(OC)c(NC(=O)Nc2ccc(-c3nnc(-c4ccccc4)o3)cc2)c1
119 | COc1ccc(C(NC(=O)c2cc(OC)c(OC)c(OC)c2)c2cc([N+](=O)[O-])c3cccnc3c2O)cc1OC (configuration not stated)

# Rewritten as labelled records: part of the list above.
NC(=O)C1(N2CCCCC2)CCN(c2ncnc3scc(-c4ccccc4)c23)CC1
  GIV Gai3 FP: 110

CC1(C)SC(=S)N(CCN2CCOCC2)C1N(O)C(=O)Nc1cccc2ccccc12 (configuration not stated)
  GIV Gai3 FP: 123

Cc1ccc(NC(=O)Cn2c(=O)c(CCC(=O)NC3CCCC3)nc3ccccc32)cc1C
  GIV Gai3 FP: 97

Cc1nc(-c2nnn(-c3ccccc3)c2C)sc1C(=O)NCc1ccccc1
  GIV Gai3 FP: 105

# Following part
GIV Gai3 FP | molecule
100 | Cc1ccc(-n2c(C)c(CC(Cl)(Cl)Cl)c3c2CC(C)(C)CC3=O)cc1Cl
108 | COc1cccc2cc(-c3csc(NC(=O)CCC(=O)NC4CCN(Cc5ccccc5)CC4)n3)c(=O)oc12
100 | O=C(NCc1cccs1)C1CCN(c2cnc(N3CCSCC3)nc2)CC1
108 | O=C(Nc1ccc2c(c1)OCCO2)c1ccc(-c2cccc(F)c2)nc1
118 | CN(CCc1noc(-c2ccc(C(=O)N3CCCC3)cc2)n1)C(=O)CC1CCCC1
115 | CCOC(=O)c1c(NC(=O)c2c(-c3ccccc3Cl)noc2C)sc2c1CCC(C)C2 (configuration not stated)
102 | O=C1NN(c2ncnc3sc4c(c23)CCCC4)C(=O)c2cccc3cccc1c23
98 | Cc1ccc(C)c(S(=O)(=O)N2CCCC2c2cc(C)no2)c1 (configuration not stated)
105 | Cc1ccc(N2CC(O)(c3ccc(OC(F)F)cc3)[N+]3=C2SCCC3)cc1 (configuration not stated)
113 | CCCCCCCCc1ccc(-c2ccc(C(=O)OC34CCC5(CCC)CC3CCC5C4)cc2)cc1 (configuration not stated)

# Continuation:
GIV Gai3 FP | molecule
107 | CC1(C)CC(NC(=O)CC(=O)NC2CC(C)(C)NC(C)(C)C2)CC(C)(C)N1
97 | CCCc1[nH]nc2c1C1(C(=O)Nc3ccccc31)C(C#N)=C(N)O2 (configuration not stated)
106 | O=C(Nc1cccc(C(=O)N2CCCC(C(=O)NCc3ccccc3)C2)c1)c1ccccc1Cl (configuration not stated)
98 | O=S(=O)(c1cc(-c2noc(C3CC3)n2)cs1)N1CCOCC1
122 | Cc1ccc(C(=O)[C@@H]2[C@@H](c3cccc4ccccc34)C(C#N)(C#N)[C@H]3C=Cc4cc(Cl)ccc4N23)cc1
104 | CC(C)c1nnc(-c2ccc(S(=O)(=O)NC3CCCCC3)o2)o1
105 | COc1ccc(-c2noc(CCc3nnc4ccc(N5CCN(C6CCCCC6)CC5)nn34)n2)cc1
107 | COc1cc2c(cc1OC)C(c1ccc(Br)cc1)OC1=C2C(=O)c2ccccc21 (configuration not stated)
106 | COc1ccc(-c2cc(C(F)(F)F)n3nc(C(=O)Nc4ccc5c(c4)OCO5)cc3n2)cc1
107 | Cc1cc(C)cc(S(=O)(=O)N2CCC3(CC2)NCCN=C3NC(C)(C)C)c1

# (further entries)
GIV Gai3 FP | molecule
103 | CCOC(=O)N1CCN(C(=O)c2ccc3c(=O)n(-c4ccc(OC)c(OC)c4)c(=S)[nH]c3c2)CC1
112 | C=CCn1c(=O)c(=O)n(CC(=O)N2CCCC2)c2ccccc21
109 | Cc1cccc(C2(c3cccc(C)c3)CC2C(=O)Nc2ccc(I)cc2)c1 (configuration not stated)
100 | CCOc1cccc(CN2CCCC2c2cc(C(C)C)on2)c1O (configuration not stated)
107 | O=S(=O)(c1ccc(Br)cc1)N1CCc2nc[nH]c2C1
112 | O=C(NCc1cccnc1)/C(=C/c1cn(-c2ccccc2)nc1-c1ccc(Br)cc1)NC(=O)c1ccccc1
105 | O=S(=O)(Cc1nc(-c2ccccc2)no1)c1ccc(Cl)cc1
115 | CC1(C)CC(NCC(=O)N2c3ccccc3Sc3ccc(Cl)cc32)CC(C)(C)N1
111 | N#CC1=C(N)N(c2ccc(Br)cc2F)C2=C(C(=O)CCC2)C1c1cccs1 (configuration not stated)
100 | COc1cc(NC(=O)c2sc3nc(C)nc(N4CCCCC4C)c3c2C)cc(OC)c1OC (configuration not stated)

# Next part
GIV Gai3 FP | molecule
110 | CCCCCCCCN1c2ccccc2C(C)(C)C12C=Nc1c(ccc3ccccc13)O2 (configuration not stated)
117 | O=C(CSCc1nc2cccnc2n1C1CCCCC1)NCc1cccc(F)c1
99 | O=C(COc1ccccc1)Nc1cc(-c2ccccc2)nn1-c1ccccc1
107 | CCOc1ccc(N2CC(O)(c3ccc(OC)c(OC)c3)[N+]3=C2CCCC3)cc1 (configuration not stated)
107 | COc1cc(NC(=O)c2cc([N+](=O)[O-])ccc2N2CCCCC2)c2ncccc2c1
125 | CC(=O)c1cccc(N2C(=O)/C(=C/c3ccc(-c4ccc(Br)cc4)o3)C=C2c2ccccc2)c1
120 | O=C1C(=O)N(CCCN2CCOCC2)C(c2ccccc2F)/C1=C(\O)c1ccccc1 (configuration not stated)
113 | COC(=O)Nc1ccc(S(=O)(=O)N2CCCC(C(=O)N(C)C3CCCCC3)C2)cc1 (configuration not stated)
102 | COc1ccc(NC(=O)c2nnc(C3CCN(C(=O)Cc4ccc(F)cc4)CC3)s2)cc1
101 | Cc1noc(C)c1C1CCCN1C(=O)c1cc(-c2ccc(F)cc2)on1 (configuration not stated)

# Some of the entries so far, bar-delimited.
mol | GIV Gai3 FP
CCCCCCCCN1c2ccccc2C(C)(C)C12C=Nc1c(ccc3ccccc13)O2 (configuration not stated) | 110
O=C(CSCc1nc2cccnc2n1C1CCCCC1)NCc1cccc(F)c1 | 117

# (cont.)
GIV Gai3 FP | molecule
109 | O=S(=O)(Nc1ccccc1-c1ccc2ccccc2n1)c1ccc(F)cc1F
103 | CCOc1ccc(NC(=O)C(NC(=O)c2ccccc2)C23CC4CC(CC(C4)C2)C3)cc1 (configuration not stated)
100 | Cc1cc(N2CCCCC2)nc(N2CCN(S(=O)(=O)c3ccc(Br)cc3)CC2)n1
110 | NNC(=O)CN1C(c2ccc(Cl)cc2)=Nc2ccc(Br)cc2C1c1ccccc1 (configuration not stated)
106 | CCCN1CCN(S(=O)(=O)c2cc(-c3nnc(CC)o3)co2)CC1
104 | CCCc1ccc(S(=O)(=O)N2CCCC2c2nc(-c3ccc(Cl)cc3)no2)cc1 (configuration not stated)
107 | Cc1cc2c(c(=O)o1)C(c1cccc(OCc3c(F)cccc3Cl)c1)C(C#N)=C(N)O2 (configuration not stated)
96 | Cn1cc(C(=O)Oc2ccccc2)c2ccccc2c1=O
102 | CC(C)CC(=O)Nc1ccc(C2(C(=O)NC(C)C)CC2)cc1
110 | COc1ccc(C(C)=O)cc1N1C(=O)C2C3c4ccccc4C(C=O)(c4ccccc43)C2C1=O (configuration not stated)

# The results go on:
GIV Gai3 FP | molecule
101 | CCc1ccc(C2=NN(c3ccccc3)C3(SC(C(=O)c4ccccc4)=NN3c3ccccc3)c3ccccc32)cc1 (configuration not stated)
106 | CCN1C(=O)/C(=C2\Sc3ccc(Cl)cc3N2C2CCCCC2)SC1=S
103 | Cc1cccn2c(=O)cc(COc3ccc(NC(=O)Nc4ccc(Cl)cc4)cc3)nc12
106 | O=C(NCC1CC1)c1cccn2c(-c3ccc(F)cc3)nnc12
105 | Cc1ccc(N2C(=O)/C(=C\c3cccc([N+](=O)[O-])c3)C3=C2C(=O)N(c2ccc(C)cc2)C3c2ccccc2)cc1 (configuration not stated)
99 | O=c1c2nc(-c3ccc(Br)cc3)cn2ccn1-c1ccc2c(c1)CCC2
105 | Cc1nnc2ccc(-n3ncc4c3NC(=O)CC4c3ccccc3OCc3ccc(Cl)cc3)nn12 (configuration not stated)
106 | COC(=O)c1ccc2c(c1)N(Cc1ccc(Cl)cc1)C(=O)CS2
111 | Nc1ccc(C(=O)N2N=C(C(F)(F)F)CC2(O)c2ccc(F)cc2)cc1 (configuration not stated)
97 | CC(C)N1CCN(C(=O)c2cc3c(s2)N(C)CCC3)CC1
101 | O=C(NC1CCCC1)c1ccc2c(=O)n(CC3CCCO3)c(SCc3ccc(F)cc3)nc2c1 (configuration not stated)
114 | COc1cccc(C2=N/C(=C\c3ccccc3OC)C(=O)N2c2cc(C)cc(C)c2)c1
113 | N#CC1=C([S-])N[C@@](O)(c2ccccc2)[C@H]([n+]2ccc3ccccc3c2)[C@H]1c1ccc(Br)cc1
